PKD1 inh – inhibitors of human PKD1 kinase | Q15139 | PKD1 kinase fluorescence polarization assay | inhibition, %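 (about 10 µM by stock and volumes)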 | hit rate 0.056% among 200,000 | AID 797;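 active = inhibition of 50% or more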;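 note: controls were vehicle for no effect and a reference inhibitor for full effect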
Target sequence (Q15139 whole entry, looked up): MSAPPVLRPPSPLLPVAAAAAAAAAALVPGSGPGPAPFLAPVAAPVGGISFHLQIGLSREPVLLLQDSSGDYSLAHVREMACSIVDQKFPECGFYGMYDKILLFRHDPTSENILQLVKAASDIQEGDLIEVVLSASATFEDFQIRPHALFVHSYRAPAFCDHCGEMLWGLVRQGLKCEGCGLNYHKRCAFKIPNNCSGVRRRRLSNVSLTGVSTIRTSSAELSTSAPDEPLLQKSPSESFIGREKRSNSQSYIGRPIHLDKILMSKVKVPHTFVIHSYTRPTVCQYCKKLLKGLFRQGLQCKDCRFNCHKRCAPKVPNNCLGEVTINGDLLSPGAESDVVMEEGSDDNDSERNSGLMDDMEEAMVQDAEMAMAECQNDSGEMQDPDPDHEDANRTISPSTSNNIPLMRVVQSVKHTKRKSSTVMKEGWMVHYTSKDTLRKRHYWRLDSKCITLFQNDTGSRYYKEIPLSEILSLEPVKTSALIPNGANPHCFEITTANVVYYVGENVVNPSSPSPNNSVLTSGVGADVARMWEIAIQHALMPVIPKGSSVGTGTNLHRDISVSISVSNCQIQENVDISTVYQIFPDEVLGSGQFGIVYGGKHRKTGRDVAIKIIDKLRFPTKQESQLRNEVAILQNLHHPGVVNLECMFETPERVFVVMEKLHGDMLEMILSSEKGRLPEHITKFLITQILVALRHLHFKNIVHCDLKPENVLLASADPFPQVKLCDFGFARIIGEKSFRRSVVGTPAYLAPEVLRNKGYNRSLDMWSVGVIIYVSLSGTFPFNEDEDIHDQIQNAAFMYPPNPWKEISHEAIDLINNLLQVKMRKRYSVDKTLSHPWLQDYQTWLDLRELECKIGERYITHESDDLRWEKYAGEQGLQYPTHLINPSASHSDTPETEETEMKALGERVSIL
HSV replic up – increases HSV replication in cells | hit rate 0.005% among 220,000 | maximum fold increase | AID 1956 | HSV replication augmentation in cells, fold increase;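 active = peak rise of 1.5-fold or more in the series; tested in PC3 cells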;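 note: first round at 10 µM; read as green reporter fluorescence; hits show the peak of a series up to 25 µM; 1 = signal of infected wells without compound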
RGS16-Gao HTS – RGS16-Galphao interaction regulator (human) | bead-based flow cytometry RGS16-Galphao binding, fluorescence; actives lie on both sides | O15492+P09471 | binding response (% of control), % at 10 µM | hit rate 0.38% among 220,000;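 active = below 25% or above 175%, edge rows of some plates excepted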;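 note: Galphao activated by GDP with aluminum fluoride before binding; 100% = wells without compound and 0% = beads without RGS; some results beyond the cut were filed as inactive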
GALR2 ag – activates the human galanin receptor 2. O43603. activation, %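 (tested at 5 µM)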. AID 803. GALR2-expressing cells, agonist activation read-out. hit rate 0.48% among 140,000;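 active = above mean plus 3 SD of all compounds, about 5% in these data, not always enough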;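 note: 0% = vehicle buffer wells and 100% = reference agonist at full effect; tested in CHO reporter cells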
INS promoter inh – TRM-6 insulin promoter activity inhibition; TRM-6 cells (human fetal islet line), insulin promoter-eGFP reporter, imaging; reporter expression induced with tamoxifen; inhibition, % at 2 µM; hit rate 0.9% among 130,000;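 active = inhibition above the mean plus 3 SD, with well images judged a real hit on visual review, cut at about 60% in these data, passing the limit was not always enough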
INS promoter inh cell count – second read-out of INS promoter inh, no call of its own (marks repeat the call); normalized cell count, %; measured here: cell count, toxicity; reference of the scale not given here;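 cells exposed to compound for 48 h; stained nuclei by imaging scaled within each plate; lower means fewer cells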
HSV replic up primary fold – second read-out of HSV replic up, no call of its own (marks repeat the call); fold increase; compound at 10 µM; measured here: primary screen fold increase 10 uM; tested in PC3 cells;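 GFP signal in the first replicate; 1 = infected wells without compound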
An asterisk follows results filed as active; i = inactive; / = no result given; [ ] = remark or other dose.

SMILES	PKD1 inh	HSV replic up	HSV replic up primary fold	GALR2 ag	INS promoter inh cell count	INS promoter inh	RGS16-Gao HTS
CCCNCc1cc(OC)c(OCc2ccccc2)cc1Br	-8	i	1.1	/	/	/	102
Cc1nn(Cc2ccccc2Cl)c(Cl)c1/C=C/C(=O)OCC(=O)NC(N)=O	5	i	0.91	-4.9	128	4	100
O=C(c1ccccc1)N1CC(COc2ccccc2)OC(c2cccnc2)O1 (stereo not drawn)	11	i	0.98	-3.4	119	6	102
O=C(Nc1nc(-c2cccs2)c(C(=O)C(F)(F)F)s1)c1ccccc1	-10	/	/	-2.5	101	10	/
O=C(NCCc1ccncc1)Nc1ccccc1	1	i	0.68	-4.0	142	-51	96
Nc1nc(CN2CCN(Cc3ccccc3)CC2)nc(Nc2ccccc2)n1	-2	i	0.91	-1.8	43	56	106
Cc1ccc(Cl)cc1Nc1nc(-c2sc(NC(=O)c3ccccc3)nc2C)cs1	-5	i	1.1	-2.0	58	27	96
C=CCO/N=C(/C)c1c(O)c(CC)c(-c2ccccc2)n(-c2ccccc2)c1=O	-12	i	0.72	-2.1	114	26	104
CC1(c2ccccc2)NC(=S)N2C1NC(=S)N2c1ccccc1 (stereo not drawn)	-4	/	/	-0.1	80	41	101
Cc1[nH]nc(Nc2ccccc2)c1[N+](=O)[O-]	4	i	0.89	-1.0	/	/	89
COC(=O)CSc1nc2sc(C)c(C)c2c(=O)n1C	-4	i	0.97	0.9	130	-8	96
CCOC(=O)c1cc(NC(=O)COc2ccc([N+](=O)[O-])cc2)cc(C(=O)OCC)c1	-2	i	0.94	-1.2	112	32	61
COc1ccc(CNc2ncnc3cc(Cl)ccc23)cc1	-2	i	1.1	/	/	/	101
O=C(CNC(=O)c1cccs1)N/N=C/c1c[nH]c2ccccc12	-3	i	0.98	/	91	21	-4.2*
COc1ccccc1-c1c(C)c(C)nc(N)c1C#N	3	i	0.99	-1.0	/	/	102
CC(=O)Oc1c2occc2cc2ccc(=O)oc12	-4	i	1	0.1	117	21	104
C=CCSC1=NN2CCS(=O)(=O)N=C2S1	-4	i	0.91	/	/	/	98
COc1ccc(NC(=O)c2ccc3c(SCC(=O)O)c4c(nc3c2)CCCC4)cc1Cl	1	i	0.92	/	/	/	97
Brc1cc2c(cc1Br)OCCOCCOCCOCCO2	6	i	0.96	/	156	-27	91
Cc1cccc(N2C(=O)CN(Cc3cccs3)C2=S)c1	-2	i	1.1	/	/	/	8
CC(O)Cn1nc([N+](=O)[O-])nc1N (stereo not drawn)	7	i	1.1	/	32	17	105
CC(OC(=O)CCc1nc2ccccc2c(=O)[nH]1)C(=O)c1ccc(Br)cc1 (stereo not drawn)	0	i	0.8	-2.0	137	0	92
c1ccc(Nc2cc(-c3ccccc3)nc3ncnn23)cc1	-3	i	0.83	-0.7	/	/	102
O=C(Cn1cc(F)c(=O)[nH]c1=O)NCCO	-2	i	0.77	/	/	/	103
O=C(NCC1CCCN(C(=O)c2cccnc2)C1)c1ccc(-c2ccccc2)cc1 (stereo not drawn)	-5	i	0.96	/	/	/	95
COCCNC(=O)/C(C#N)=C/c1ccc(SC)cc1	-1	i	0.99	/	176	-33	104
O=C(CNC(=O)c1ccccc1)N/N=C/c1ccc([N+](=O)[O-])o1	-3	i	0.87	-1.4	92	-90	92
CCOC(=O)c1cc2c(ccn2C)n1Cc1ccccc1C	-5	i	1	-1.4	/	/	105
O=C(Nc1cnccn1)c1cccc(C(F)(F)F)c1	-10	i	0.93	-1.7	66	-200	99
CCOC(=O)C1=C(C)Nc2ncnn2C1c1cc(Br)ccc1F (stereo not drawn)	-10	i	0.98	0.1	138	-61	91
O=C(NCCCN1CCCC1=O)c1ccc2c(c1)NC(=O)C(N1CCOCC1)S2 (stereo not drawn)	-1	i	1.1	-2.9	120	50	107
Cc1cccc(C(=O)NC(=S)NNC(=O)COc2ccc(Cl)cc2)c1	-2	i	0.92	/	/	/	100
CCOP(=O)(OCC)C(NC(=O)Nc1ccc(Cl)cc1)C(N)=O (stereo not drawn)	1	i	0.91	-1.1	156	12	104
COc1ccccc1/C=N/NC(=O)Cn1cnc([N+](=O)[O-])n1	-4	i	0.95	/	106	20	103
CN(C)CCCN(C(=O)CCOc1ccccc1)c1nc2c(F)cccc2s1	-7	i	0.6	/	/	/	107
Cc1ccc(C2(C)NC(=O)N(CC(=O)Nc3ccc4[nH]c(=O)[nH]c4c3)C2=O)cc1 (stereo not drawn)	/	i	0.97	/	/	/	105
CCOc1ccc(CN2CCN(Cc3nc4c(s3)CCCC4)CC2CCO)cc1 (stereo not drawn)	7	i	0.85	/	/	/	95
CCOc1cc2[nH]c(=O)n(CCc3ccc(OC)c(OC)c3)c(=O)c2cc1OCC	-5	i	0.8	0.8	/	/	99
COc1cccc(NC2=NC3(CCCCC3)N=C(N)N2)c1	-3	i	0.9	-2.5	99	-12	108
COC(=O)CSc1nc(N2CCCCC2)c2c(c1C#N)CCCC2	6	i	1	-1.5	137	7	99
Cn1c(OCc2ccc3c(c2)OCO3)nc2c1c(=O)n(Cc1ccc(Cl)c(Cl)c1)c(=O)n2C	10	/	/	2.6	102	13	102
COc1ccccc1NS(=O)(=O)c1cccc(C(=O)N/N=C/c2ccccc2OCC(=O)O)c1	-1	i	0.96	/	/	/	103
Cc1cccc(NC(=S)N(CCc2nc3cc(C)c(C)cc3[nH]2)Cc2cccnc2)c1	6	i	0.85	-0.5	102	-36	100
O=C(c1ccc(C(=O)N2CCN(c3ccccc3F)CC2)nc1)N1CCN(c2ccccc2F)CC1	/	i	0.97	/	/	/	101
CCOC(=O)Nc1ccc2c(c1)N(C(=O)CCN1CCN(CCO)CC1)c1ccccc1S2	-10	i	0.95	-1.5	107*	89*	/
COc1ccccc1N1CCN(C(=O)CCn2c(=O)[nH]c3ccccc3c2=O)CC1	-9	i	1.2	-3.0	99	23	105
Cc1nn(C)c(C)c1C1C(C#N)=C(N)OC2=C1C(=O)CCC2 (stereo not drawn)	7	i	1	0.0	/	/	88
CC1=NOC(=O)/C1=C\c1ccc(-c2ccccc2Br)o1	2	i	0.75	/	39	-14	92
COc1ccc(CCNC(=O)c2cc(=O)[nH]c3ccc(Br)cc23)cc1OC	-5	i	0.84	-1.5	133	55	112
COc1ccc(NC(=O)Nc2ccon2)c(OC)c1	-2	i	1	/	/	/	97
CC(C)C(=O)Nc1cccc(S(=O)(=O)c2cccc(NC(=O)C(C)C)c2)c1	-2	i	1	-1.4	45	-488	80
Cc1cccc(OCC(=O)Nc2ccccc2N2CCCCC2)c1	-7	i	0.89	-0.2	121	41	104
O=C1C(Cl)=C(Nc2ccccc2)C(=O)c2ccccc21	0	i	0.56	4.6	8	-386	108
Cn1c(CN2CCCCC2)nc2cc(NC(=O)c3ccccc3Cl)ccc21	-6	i	0.8	-2.9	66	-6	96
CS(=O)(=O)Nc1ccc(C(=O)Nc2ccccc2C(=O)N2CCCC2)cc1	-2	i	0.9	-2.1	46	18	112
CC(C)(C)C(=O)N1NC(=Nc2ccccc2)SC1(C)C	/	i	1.1	/	/	/	100
O=C(CCCOc1ccccc1)NCc1ccco1	13	i	0.94	-1.9	112	13	98
O=C(C/C=N\OCc1ccc(Cl)cc1Cl)Nc1ccccc1	-7	i	0.9	/	/	/	98
CC1CC1C(=O)OCC(=O)Nc1cccc(S(=O)(=O)NC2=NCCCCC2)c1 (stereo not drawn)	/	i	1.1	/	/	/	90
CCc1cc2c(C)ccc(C)c2nc1SCC(=O)Nc1c[nH]c(=O)[nH]c1=O	-1	i	0.52	/	/	/	99

Remaining list, next part.
SMILES	PKD1 inh	HSV replic up	HSV replic up primary fold	GALR2 ag	INS promoter inh cell count	INS promoter inh	RGS16-Gao HTS
Cc1cc([N+](=O)[O-])ccc1NCc1cccc2ccccc12	20	i	0.9	-4.0	120	20	/
CCCCCCc1nc2c(=O)[nH]c3ccccc3c2o1	5	i	0.81	0.3	99	8	109
O=C(NC(Cc1c[nH]c2ccccc12)C(=O)O)/C(=C/c1ccco1)NC(=O)c1ccccc1 (stereo not drawn)	-2	i	1.1	/	/	/	101
COC(=O)c1ccncc1C(=O)Nc1ccc(F)cc1	-6	/	/	/	100	7	105
COc1ccccc1N1CCN(C(=O)c2cc(-c3ccc4c(c3)OCO4)on2)CC1	1	i	0.91	-3.5	/	/	103
Cc1ccccc1N=C(NO)c1nonc1N	-2	i	1.1	/	/	/	165
Nc1nc2nc(-c3ccc(Cl)cc3)cc(C(F)(F)F)n2n1	-1	i	1	1.4	66	64	106
CC(C)(C)C(=O)c1sc(Nc2ccccc2)nc1N	0	i	0.99	-2.0	130	50	101
CCC(=O)N1CCc2cc(Br)cc(S(=O)(=O)NCCN3CCCCC3CC)c21 (stereo not drawn)	-4	i	0.88	0.1	97	-22	97
CCOc1ccc(/C(O)=C2/C(=O)C(=O)N(CC3CCCO3)C2c2ccco2)cc1 (stereo not drawn)	-9	i	0.97	-0.1	178	-7	96
O=C(Nc1nc2nccc(-c3ccccc3)n2n1)c1ccc(F)cc1	5	i	0.97	-1.0	101	-23	101
Cc1ccc(OCC(=O)O/N=C(\N)Cc2ccc(Cl)cc2)cc1	-4	i	0.93	-0.9	129	16	98
CCOC(=O)C(Cc1ccccc1)NS(=O)(=O)c1ccc(NC(C)=O)cc1 (stereo not drawn)	1	i	0.93	-2.8	128	-62	98
O=C(c1ccco1)N1CCN(C(=O)c2nn3cccnc3c2Cl)CC1	-6	i	1	-2.3	171	-34	100
COc1ccccc1C(=O)Nc1sc(C(=O)N2CCCC2)c(C)c1C#N	-2	i	0.93	/	111	-21	103
COc1ccc(OC)c(NC(=O)C2CCN(S(=O)(=O)c3c(C)noc3C)CC2)c1	-6	i	0.96	-2.9	90	-4	102
COc1ccc(C2CC(c3cccs3)=NN2S(=O)(=O)c2ccc(C)cc2)cc1 (stereo not drawn)	2	i	0.97	-1.8	91	11	/
O=S(=O)(c1c(Cl)sc(Cl)c1Br)N1CCCC1	/	i	1	/	/	/	102
COCCNC(=O)CSc1nc2cc(OC)c(OC)cc2c(=O)n1Cc1ccco1	1	i	1.1	0.0	137	-9	101
COc1ccc(NC(=O)C(C)Sc2nnc3c4c(nc(-c5ccc(OC)cc5)n23)CC(C)(C)OC4)cc1 (stereo not drawn)	0	i	1.1	-1.0	/	/	106
CC(C)c1onc(C(=O)N(C)Cc2ccccc2)c1[N+](=O)[O-]	-8	i	1.1	-1.8	63	27	24*
CCCn1c(SCC(=O)Nc2nc(-c3ccc(OC)cc3)cs2)nc2c1c(=O)n(C)c(=O)n2C	14	i	0.86	-1.1	118	21	109
Cc1nn(C(=O)c2cccs2)c(C)c1CN1C(=O)c2ccccc2C1=O	8	/	/	-3.0	58	-14	101
S=C(NCc1ccccc1)NCc1ccc(CNC(=S)NCc2ccccc2)cc1	-5	i	1.1	-1.9	40	-71	164
CCCC(CCC)C(=O)Nc1ccc2c(c1)N(C(=O)CN1CCN(C)CC1)c1ccccc1CC2	-3	i	0.75	/	/	/	253*[activator]
COc1ccc(-c2nnc(NC(=O)c3ccc(S(=O)(=O)N4COCC4(C)C)cc3)o2)cc1	-6	/	/	-0.7	/	/	99

Rewritten with values under each structure: 6 of the compounds above.
The line under a structure holds: PKD1 inh	HSV replic up	HSV replic up primary fold	GALR2 ag	INS promoter inh cell count	INS promoter inh	RGS16-Gao HTS
- CCCn1c(SCC(=O)Nc2nc(-c3ccc(OC)cc3)cs2)nc2c1c(=O)n(C)c(=O)n2C
→ 14	i	0.86	-1.1	118	21	109
- Cc1nn(C(=O)c2cccs2)c(C)c1CN1C(=O)c2ccccc2C1=O
→ 8	/	/	-3.0	58	-14	101
- CCCC(CCC)C(=O)Nc1ccc2c(c1)N(C(=O)CN1CCN(C)CC1)c1ccccc1CC2
→ -3	i	0.75	/	/	/	253*[activator]
- S=C(NCc1ccccc1)NCc1ccc(CNC(=S)NCc2ccccc2)cc1
→ -5	i	1.1	-1.9	40	-71	164
- CC(C)c1onc(C(=O)N(C)Cc2ccccc2)c1[N+](=O)[O-]
→ -8	i	1.1	-1.8	63	27	24*
- COc1ccc(-c2nnc(NC(=O)c3ccc(S(=O)(=O)N4COCC4(C)C)cc3)o2)cc1
→ -6	/	/	-0.7	/	/	99

Screens as filed in PubChem.
